# Mtb betalactam: beta-lactam sensitization of Mtb H37Rv | AID 434955 | M. tuberculosis H37Rv growth with meropenem, percent inhibition; hits of this screen are not shown here | 330,000 tested, 0.27% active | inhibition, % at 25 µM;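 active means about 74% or more and at least 40 points above the plate without the antibiotic, then above 30% in a dose series; inconclusive means first-round hits that could not be retested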;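 further: growth measured after seven days incubation then overnight dye step; 0% = bacteria only wells and 100% = bacteria with antibiotic; twin plates without the antibiotic show which effects depend on it; some results filed as inactive read as strong as hits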
# YopH inh: blocks Yersinia enterocolitica YopH tyrosine phosphatase | AID 898 | 140,000 tested, 0.16% active | inhibition, %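 (about 10 µM by stock and volumes)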 | fluorescence Ex485/Em525;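 active means inhibition of 50% or more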;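 further: controls were vehicle for no effect and minimum signal wells for full effect; inactives centre near -20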
# RecA intein inh: Mtb RecA intein splicing inhibition | cell-free RecA intein splicing, fluorescence | 290,000 tested, 0.75% active | inhibition, %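 (about 9 µM by stock and volumes)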; in the data active means inhibition above about 30%; inconclusive means no clear call, values can overlap the other calls;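 further: 0% = vehicle wells and 100% = reference inhibitor control wells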
# Target sequence (P9WHJ3 whole entry, looked up): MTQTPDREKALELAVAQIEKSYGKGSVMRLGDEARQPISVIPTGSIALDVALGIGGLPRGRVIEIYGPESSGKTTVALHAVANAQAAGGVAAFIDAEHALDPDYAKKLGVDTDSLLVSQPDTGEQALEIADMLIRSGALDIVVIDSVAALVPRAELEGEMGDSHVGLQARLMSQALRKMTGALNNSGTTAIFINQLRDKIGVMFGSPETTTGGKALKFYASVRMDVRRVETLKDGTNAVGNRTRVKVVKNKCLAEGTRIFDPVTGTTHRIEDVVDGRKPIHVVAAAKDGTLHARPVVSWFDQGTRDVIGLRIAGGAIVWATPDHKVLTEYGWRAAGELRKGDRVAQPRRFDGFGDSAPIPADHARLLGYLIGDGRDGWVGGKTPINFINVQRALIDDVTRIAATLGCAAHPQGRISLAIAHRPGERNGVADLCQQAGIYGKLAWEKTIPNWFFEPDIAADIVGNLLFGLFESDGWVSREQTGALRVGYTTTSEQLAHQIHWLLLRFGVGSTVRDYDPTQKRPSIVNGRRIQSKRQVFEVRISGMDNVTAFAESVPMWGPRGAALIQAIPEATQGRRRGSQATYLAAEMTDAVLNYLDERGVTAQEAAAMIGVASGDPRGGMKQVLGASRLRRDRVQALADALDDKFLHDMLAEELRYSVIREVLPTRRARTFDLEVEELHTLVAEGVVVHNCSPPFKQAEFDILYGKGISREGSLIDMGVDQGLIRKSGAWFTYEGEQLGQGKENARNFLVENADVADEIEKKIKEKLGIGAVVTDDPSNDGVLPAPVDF
# Arbovirus anti: arbovirus infection inhibition; inhibition, % at 10 µM; 200,000 tested, 0.37% active; arbovirus infection cell-based antiviral screen;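 active means inhibition from about 30%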;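 further: bluetongue infection of BSR cells; cell survival read as ATP light after 72 h; 0% = infected wells without compound and 100% = uninfected wells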
# Mtb H37Rv: M. tuberculosis H37Rv growth inhibitors, H37Rv strain (AID 1626). M. tuberculosis H37Rv growth inhibition; higher % means a stronger effect. 220,000 tested, 0.95% active. inhibition, % at 10 µM, or IC50 in µM where a hit was titrated;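 active means confirmed in a dose series; inconclusive means inhibition above 80% but not taken into the dose series; inactive means below 80% or under 30% at every dose of the series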;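 further: bacteria incubated seven days before Alamar blue readout; 0% = bacteria only wells and 100% = bacteria with antibiotic wells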
# Arbovirus anti repeat: also measured in Arbovirus anti; calls as there; inhibition, %; measured here: 10K subset replicate screen; many hits read low in the repeat;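 first of two repeat runs on a subset; 0% = infected and 100% = uninfected wells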
# * marks the source's active call; other numbers are inactive results; i = inactive; u = inconclusive; x = not tested or not shown.
SMILES,Mtb betalactam,YopH inh,RecA intein inh,Arbovirus anti,Mtb H37Rv,others
COC(=O)C(C)Sc1nc2c(c(=O)n(C)c(=O)n2C)n1CCC(C)C (centres undefined),u,-31,0.4,5,2%,
Cc1cc(C(=O)N/N=C/c2ccco2)n[nH]1,-13,x,-2.4,-11,-1%,
Cc1cc(C)c2oc(-c3ccc(C)c(NC(=S)NC(=O)c4cccs4)c3)nc2c1,55,-34,0.9,-27,14%,
O=C(NCCc1ccccc1)c1nnc(CS(=O)(=O)c2ccccc2)o1,-4,x,-0.5,x,x,
CCNC(=O)NC(=O)C(C)OC(=O)C1CCN(S(=O)(=O)c2ccccc2F)CC1 (centres undefined),0,-23,1.4,4,-10%,
C=CCSc1n[nH]c(-c2ccc(OC)cc2)n1,-3,5,-1.8,-7,-5%,
Cc1cc(SCc2ccc(Cl)c(Cl)c2)nc(=O)[nH]1,11,x,2.8,x,x,
CCCCOC(=O)c1ccc(NC(=S)NC(=O)c2c(Cl)cnn2CC)cc1,99,-46,1.7,-12,69%,
Cc1cc(C)cc(OCC(=O)Nc2ccc(F)cc2)c1,2,14,0.4,-2,-2%,
CCOC(=O)c1nnn(-c2nc(OC)nc(N(C)C)n2)c1-c1ccccc1,-10,-17,-0.9,0,3%,
CC(=O)N1CCCC(N2CCN(c3cccc(C(F)(F)F)c3)CC2)C1 (centres undefined),0,x,1.8,x,x,
N#CC(C#N)=Cc1c[nH]c(=O)c(C#N)c1Nc1ccccc1,-12,x,i,x,x,
NNC(=O)C=C1CCN(c2ncc(C(F)(F)F)cc2Cl)CC1,8,-32,5.8,0,38%,
CC(C)CN(CCCNC(=O)CN1N=C(c2ccc(Cl)cc2)CCC1=O)CC(C)C,0,x,1.1,x,x,
CC(C)CC(OC(=O)c1cccs1)C(=O)NCc1ccco1 (centres undefined),7,-31,5.3,4,-8%,
CCn1c(=O)cc(SCC(=O)NCCCN2CCC(C)CC2)c2ccccc21,-3,x,-0.5,-11,-2%,
CCN(C(=O)COc1ccccc1)c1nnc(-c2cccnc2)s1,-6,-9,-2.2,4,1%,
Nn1c(-c2cccc(Br)c2)n[nH]c1=S,-12,-47,1.3,-4,-1%,
N/C(=N\OC(=O)CCCc1ccccc1)c1ccccc1Cl,4,x,0.6,x,x,
CC(NC(=O)Cc1ccccc1)c1cc2c(cc1Br)OCCCO2 (centres undefined),-2,-13,-1.0,8,5%,
Cc1c(C)c2ccc(OS(C)(=O)=O)cc2oc1=O,-3,-5,-1.8,4,-8%,
CC(=O)N(c1nc(CCl)cs1)c1ccc(C)cc1C,-3,x,-1.7,-9,-8%,
NC(=O)c1c(NC(=O)CN2CCN(S(=O)(=O)c3ccccc3)CC2)sc2c1CCC2,-4,x,-3.8,x,x,
O=[N+]([O-])c1cccc(CN(CCO)Cc2ccccc2)c1,25,-14,1.8,-1,6%,
CC1N(O)C(C)(C)C(c2ccccc2)=[N+]1[O-] (centres undefined),6,-26,-4.3,-1,-4%,
O=C(O)Cc1csc(NC(=O)CSc2nnnn2-c2ccc(O)cc2)n1,-1,x,-0.6,x,-8%,
Cc1c(C(=O)N2CCC(C(N)=O)CC2)sc(N)c1C#N,2,-51,x,5,17%,Arbovirus anti repeat=3
Cn1c2ccccc2c2nnc(N/N=C/c3ccc(O)cc3)nc21,1,x,-1.0,x,x,
COc1ccc(O[C@H]2C=C[C@@H](c3ccccc3)O[C@@H]2CO/N=C(\C)CCN2CCc3nc(-c4ccccc4)c(-c4ccccc4)cc3C2)cc1,-8,-25,15,-21,x,
COc1ccccc1Nc1nc(-c2sc(NC(=O)c3ccc([N+](=O)[O-])cc3)nc2C)cs1,-4,6,1.8,-5,x,
CC(C)Nc1ccc(C(CC(N)=O)NC(=O)c2ccccc2)cc1[N+](=O)[O-] (centres undefined),-9,x,-2.8,x,x,
CC1CN(CCOc2ccc(Cl)cc2Cl)CC(C)O1 (centres undefined),45,-37,2.2,-5,-1%,
Cc1ccsc1CN(C)Cc1nc(C2CC2)no1,-5,x,1.4,3,1%,
Cc1nc2ccc(NC(=O)COc3ccccc3F)cc2s1,-6,x,1.4,-3,u,
O=C(CSc1ncccc1C(=O)O)c1ccccc1F,1,x,-1.3,7,5%,
O=C1CCCN1CN(C(=O)c1ccc2c(c1)OCO2)c1cccc(Cl)c1,3,-42,1.4,7,0%,
Cc1ccccc1NC(=O)CSC1=NCCN1,-4,-25,x,-1,4%,
Cc1ccc(C(=O)CSc2nnnn2C(C)C)c(C)c1,-1,-1,4.0,1,1%,
CCCCN1C2=NCCCN2c2ccccc21,8,22,9.5,-2,-4%,
CN(C)CCCn1cnc2c1c(=O)[nH]c(=O)n2Cc1ccccc1,-4,x,0.4,x,x,
O=C1CCC(=O)N1OCCOc1ccc2c(c1)CCC2,1,-35,6.8,-4,8%,
CCOC(=O)C1(CCc2ccccc2)CCN(C(=O)[C@@H]2C[C@@H](C)NC(=S)N2)CC1,2,x,5.2,1,3%,
FC(F)(F)c1cccc(NCc2n[nH]c(=S)n2C2CCCCC2)c1,0,x,3.1,-7,-2%,
O=C(NCc1ccccc1)C(c1cccnc1)N(C(=O)c1ccccn1)c1cccc(F)c1 (centres undefined),3,x,-3.9,x,x,
C[C@H](NC(=O)c1nc[nH]c1C(=O)N[C@@H](CCCCNC(=O)OC(C)(C)C)C(=O)OC(C)(C)C)C(=O)OC(C)(C)C,-5,x,-5.3,x,-11%,
COc1ccccc1NC(=O)Cc1nnc(SCC(=O)c2ccc(F)cc2)n1C,-6,x,1.7,x,x,
COc1cc(NC(=O)c2cc(-n3cnnc3)ccc2Cl)cc(OC)c1,0,-10,-1.4,1,-5%,
Cc1nn(C)cc1C(C(=O)NC1CCCCC1)N(C(=O)Cc1cccs1)c1ccc(F)cc1 (centres undefined),7,-4,-0.2,3,10%,
O=C(O)CCC(=O)Nc1cccc(C(=O)Nc2ccc(Br)cc2)c1,-2,x,-1.0,7,7%,
CCC(C)N(C(=O)COc1ccc(Cl)c2cccnc12)C1CCS(=O)(=O)C1 (centres undefined),-11,x,-2.5,x,x,
# Following part:
SMILES,Mtb betalactam,YopH inh,RecA intein inh,Arbovirus anti,Mtb H37Rv,others
CCC(=O)N1c2ccc(S(=O)(=O)N3CCCC3)cc2CC1C (centres undefined),-2,x,-0.8,x,x,
COCCNC(=O)COc1ccc(Br)cc1Cl,-3,-13,-0.6,1,2%,
CN(Cc1ccccc1)C(=O)c1c[nH]c2ccc(S(=O)(=O)N3CCOCC3)cc2c1=O,-1,-26,-2.0,0,-3%,
Cc1ccc(NC(=O)CSCC(=O)NCCc2ccccn2)c(C)c1,-2,x,0.0,5,3%,
O=C(Nc1ccc(Oc2cccnc2)cc1)c1cccc([N+](=O)[O-])c1,6,-6,-0.2,-13,9%,
CCC(C)NC(=O)c1ccc2nc(-c3ccc(OC)c(OC)c3)c(-c3ccc(OC)c(OC)c3)nc2c1 (centres undefined),2,x,-3.5,x,x,
Cc1ccc(S(=O)(=O)N(c2nc(N(C)C)nc(N(C)C)n2)n2cnnc2)cc1,4,-23,0.0,-4,-8%,
CCOC(=O)CCc1c(C)c2c(C)nn(-c3ccccc3)c2[nH]c1=O,-19,-19,1.5,-6,1%,Arbovirus anti repeat=-1
O=C(Nc1ccc(Cl)cc1C(=O)NCCN1CCOCC1)c1ccc(Cl)cc1Cl,-2,-18,-1.0,-1,5%,
N=c1c(C(=O)NCCN2CCOCC2)cc2c(=O)n3ccccc3nc2n1CCc1ccccc1,0,x,-379,x,x,
Cn1c(=O)c2[nH]c(-c3ccccc3O)nc2n(C)c1=O,-3,-21,-5.6,4,x,
CCC(C)(C)NC(=O)C(c1ccc(OC)cc1)N(C(=O)CCC(=O)Nc1cc(C)on1)c1ccc2c(c1)OCO2 (centres undefined),-4,x,2.4,x,x,
C=CCN(C(=O)c1csnn1)C(C(=O)NC1CCCCC1)c1ccc(F)cc1 (centres undefined),0,x,1.3,x,x,
CCc1nc2c(c(=O)c3ccccc3n2C)c(=O)n1C1CCCCCC1,5,-19,0.5,-34,7%,
Cc1cccc(OCC(=O)Nc2ccc(N3CCN(C(=O)c4ccccc4)CC3)cc2)c1,3,-9,2.0,-10,-6%,
CCN(Cc1ccccc1)C(=O)c1cc(S(=O)(=O)N2CCOCC2)ccc1N1CCCC1,3,x,0.5,x,x,
CCC(C)C(NC(N)=O)C(=O)Nc1ccc(C)c(Cl)c1 (centres undefined),3,-35,-1.0,2,-5%,
Cc1cc(C#N)c(C)n1-c1cc(C(F)(F)F)ccc1N1CCOCC1,3,2,8.0,-11,0%,
CCC(C)(C)NC(=O)C(c1ccncc1)N(C(=O)c1sc(C)nc1C)c1ccc(C)cc1 (centres undefined),3,x,-6.9,-1,-10%,
S=c1[nH]nc(-c2ccc3ccccc3n2)o1,-7,-17,-1.5,-5,3%,
O=[N+]([O-])c1cc([N+](=O)[O-])c(Oc2ccccc2F)cc1NN1CCCCC1,2,x,0.9,x,x,
C=CCNC(=O)c1ccc2nccnc2c1,5,0,-1.5,-2,-13%,
COc1ccccc1N1CCN(C(=O)c2ccc3c(=O)n(Cc4ccco4)c(=S)[nH]c3c2)CC1,17,-39,-0.8,-6,-2%,
CCOc1ccc(-c2nc(CSCC(=O)N3CCN(c4cccc(OC)c4)CC3)c(C)o2)cc1,9,x,8.1,19,9%,Arbovirus anti repeat=11
Cc1nc2nc(SCc3ccccc3)[nH]n2c(=O)c1CCC(C)C,3,x,0.8,x,x,
COc1ccc(-c2cn3ccc4ccccc4c3n2)cc1,64,-9,1.7,-7,4%,
O=C(NCc1ccncc1)c1cn(-c2ccccc2)nc1-c1cccnc1,0,x,0.3,14,-3%,
COc1cc(/C=C2/SC(=O)NC2=O)ccc1OCc1ccccc1,25,x,1.9,x,x,
COc1ccc(OC(=O)Cc2cccc3ccccc23)cc1,16,x,5.3,x,x,
CCOC(=O)c1ccc2nc3c(cc2c1)CCS3,62,-48,-1.4,-4,2%,
O=C(CS(=O)CC(=O)N(CC(=O)NC1CCCC1)C1CCCCC1)Nc1ccc(F)cc1 (centres undefined),-5,1,1.8,-2,-12%,
CC1CCC(C(=O)NC(C(=O)NCc2ccccn2)C(C)C)CC1 (centres undefined),-2,-15,-2.1,0,-5%,
CCCCOc1ccc(NC(=O)CSCC(=O)OCC)cc1,100,-32,2.0,-7,u,
O=C(NCc1ccc2c(c1)OCO2)c1ccc2snnc2c1,60,-27,0.9,-2,-14%,
O=C(NCc1ccccc1)c1cc[n+](CC(=O)c2cccs2)cc1,-13,x,2.3,x,-11%,
O=C1C=C(NCCNc2c(F)c(F)c(CO)c(F)c2F)CCC1,1,-10,-5.2,2,7%,
CC(=O)c1cccc(NC(=S)NC(=O)c2ccc(C)cc2)c1,-6,x,2.1,-20,-8%,
C=CCC1Cc2c(Br)cccc2C(CC=C)N1 (centres undefined),0,x,-0.4,9,-2%,
O=C(O)CCC(=O)N1N=C(c2c(-c3ccccc3)c3cc(Cl)ccc3[nH]c2=O)CC1c1cccs1 (centres undefined),8,-35,13,-4,8%,
C=CCc1c(C)[nH]c(=S)c(C#N)c1C,1,-28,3.4,0,4%,
CC(C)n1c(Nn2cnnc2)nc2ccccc21,-4,-12,3.3,0,0%,
O=C(O)c1ccc(Nc2ncnc3ccccc23)cc1,u,x,-0.8,x,x,
COC(=O)c1cccc(NC(=S)N2CCOCC2)c1,2,x,4.8,-4,-4%,
CCc1ccc(OC(=O)c2ccn(CC)n2)cc1,94,-25,14,21,7%,
Cc1cccc(-n2c(SCC(=O)NC3CCCC3)nnc2-c2ccoc2C)c1,2,3,3.4,-9,1%,

# The list is partial; rates above refer to the full screens.
